GIV-Gai inh – inhibitors of GIV peptide binding to Galpha-i3, primary screen, biochemical, fluorescence polarization, FITC-GIV GBA peptide, rat Galphai3; Guanine nucleotide-binding protein G(i) subunit alpha-3 (Rattus norvegicus), P08753; percent of control (FP), % (test concentration not listed); 0.42% of 210,000 active; AID 1224905, 2016; 90 min; stronger effect = lower value; scaled: aluminum fluoride 0%, vehicle 100%;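 active = replicate mean at 85% of control or lower, very high polarization wells dropped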;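 note: wells of about 15 µL received 100 nL stock; the first replicate is given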
Target sequence (P08753 whole entry, looked up): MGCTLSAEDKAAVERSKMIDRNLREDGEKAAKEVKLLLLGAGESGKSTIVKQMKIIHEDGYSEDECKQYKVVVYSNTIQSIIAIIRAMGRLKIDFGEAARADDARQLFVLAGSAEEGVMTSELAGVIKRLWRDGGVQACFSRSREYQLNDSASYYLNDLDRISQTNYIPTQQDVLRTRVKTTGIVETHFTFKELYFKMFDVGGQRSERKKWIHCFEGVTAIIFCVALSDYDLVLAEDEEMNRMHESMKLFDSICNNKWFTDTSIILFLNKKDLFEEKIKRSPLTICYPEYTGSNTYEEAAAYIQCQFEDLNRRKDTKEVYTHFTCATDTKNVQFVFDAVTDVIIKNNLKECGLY
Sa growth inh – S. aureus growth inhibition at 42 and 30 °C, primary screen, LtaS inhibitor project, RN4220, two temperatures; OD600, 20 h, 42 °C; stronger effect = lower value; relative growth, % (no concentration beside the values); 0.53% of 170,000 active; AID 720641, 2013;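 active = growth at 42 °C up to 50% and 20 or more points under that at 30 °C, or under 10% at both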;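 note: 300 nL library stock went into each well; scaled to the means of positive and negative controls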
HCMV NEC inh – inhibitors of HCMV UL50-UL53 interaction, biochemical, HTRF; AID 1918969, 2023; 0.15% of 190,000 active; inhibition, % (no concentration beside the values); normalized percent inhibition;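 active = both replicates at 50% or more, plus weaker picks with an unusually low signal ratio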;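 note: stock transfer was 100 nL into about 20 µL; 0% = negative control wells and 100% = wells with untagged competitor protein; inactives centre near -12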
Sa growth inh second temp – second read-out of Sa growth inh, no call of its own (marks repeat the call); relative growth, %; measured here: growth at 30 °C;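 optical density after 20 h as mean of two plates; 100% = untreated growth and lower means inhibition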
An asterisk follows results filed as active; . = no result given; & = joins results of further samples.

mol | GIV-Gai inh | Sa growth inh | Sa growth inh second temp | HCMV NEC inh
CC(C)(C)C(=O)Nc1cccc(N2CCn3c(nc4cc(Cl)ccc43)C2)c1 | 103 | . | . | 9
O=C1CCCN1c1ccc(S(=O)(=O)Nc2ccc3[nH]c(=O)sc3c2)cc1 | 100 | . | . | -8
Oc1ccc(C=Nc2cccc(C(F)(F)F)c2)c(O)c1 | 110 | 134 | 68 | 8
CC(OC(=O)/C=C/c1cccc(Cl)c1)C(=O)N1CCN(C(=O)c2ccco2)CC1 (stereo not given) | . | 103 | 93 | -23
COc1cccc(OCC(O)CN2CCN(CCN3C(=O)c4cccc5cccc(c45)C3=O)CC2)c1 (stereo not given) | 104 | . | . | -116
CCc1ccc(NC(=O)CC(NCc2cccnc2)C(=O)O)cc1 (stereo not given) | 99 | 106 | 91 | -1
COc1ccc(C2CC(=O)C3=C(C2)NC(C)=C(C(=O)OC(C)C)C3c2cccc([N+](=O)[O-])c2)cc1OC (stereo not given) | 108 | . | . | -21
O=C(NCc1ccco1)c1ccc(Cn2c(=S)[nH]c3ccc(Br)cc3c2=O)cc1 | 102 | 116 | 83 | .
CC(C)(C)c1cc2ncnc(N3CCCCC3)c2s1 | 100 | 93 | 95 | 32
Cc1ccc(N2C(=O)CC(C(=O)O)C2c2cccs2)cc1 (stereo not given) | . | 94 | 98 | -6
Cn1c(C(=O)NCC2CCCO2)cc2c(=O)n(C)c3ccccc3c21 (stereo not given) | 103 | 108 | 93 | .
O=c1oc2ccccc2c(O)c1CN1CCCCC1 | 98 | 71 | 20 | -47
CCCn1c(=NC(=O)C(CC)c2ccccc2)c(C(=O)OCC)cc2c(=O)n3ccccc3nc21 (stereo not given) | 96 | 91 | 94 | .
Cc1ccc(NC(=O)c2ccc(=O)n(Cc3ccccc3C)c2)c(C)c1 | 102 | 98 | 83 | .
COc1ccc(NC(=O)CC2C(=O)N(c3cccc(OC)c3)C(=O)N2CCc2cccs2)cc1 (stereo not given) | 103 | 111 | 87 | -27
CC(C)NC(=O)N1CCCC(c2cccc(C(=O)NCCC3=CCCCC3)c2)C1 (stereo not given) | 106 | . | . | -18
CCCC1CCc2nc3ccccc3c(C(=O)O)c2C1 (stereo not given) | 99 | 103 | 86 | -20
COC(=O)C1=C(NC(=O)c2cccc3ccccc23)CCS1 | 106 | 99 | 99 | -6
CC1=C(C(=O)Nc2ccc(C)cc2)C(c2ccc(Cl)cc2)n2nnnc2N1 (stereo not given) | 108 | 143 | 98 | .
Cc1ccc(S(=O)(=O)NCCc2cn3ccsc3n2)cc1 | 102 | 106 | 87 | .
Cc1ccccc1CNc1nc(N(C)C)nc2c1cnn2C | 100 | 95 | 91 | .
CN(Cc1ccccc1)C(=O)c1ccc(CSc2nc3ccncc3n2Cc2ccccc2)cc1 | 100 | 89 | 77 | .
CCOCCCN1Cc2c(C(=O)OCC)sc3sc(C(=O)OCC)c(c23)C1 | 101 | 84 | 88 | -2
Cc1ccc(NC(=O)CCN2CC(C)CC(C)C2)cc1 (stereo not given) | 101 | 114 | 81 | 8
c1ccc(-c2csnn2)cc1 | 98 | 104 | 90 | -6
N#CC(c1ccccc1O)N1N=C(c2ccccc2)CC1c1ccccc1 (stereo not given) | 106 | . | . | -27
CCC1CCCCN1C(=O)COc1cc2oc(=O)c3c(c2cc1Cl)CCC3 (stereo not given) | 99 | 89 | 86 | -17
Cc1cccc(-c2cc(N3CCC(C(=O)NC4CCCc5ccccc54)CC3)ncn2)c1 (stereo not given) | 103 | . | . | -8
CCSc1ncc(Cl)c(C(=O)N(Cc2ccc(Cl)cc2)C2CCS(=O)(=O)C2)n1 (stereo not given) | 106 | . | . | -13
COc1ccc(CCN2CC(O)=C(c3nc4ccccc4c(=O)[nH]3)C2=N)cc1OC | 100 | 91 | 72 | -2
CC(NCCO)c1ccc2c(c1)OCCO2 (stereo not given) | 78* | 119 | 88 | -2
Cc1ccc(-c2nc(CCNC(=O)C(=O)Nc3ccc(F)cc3F)cs2)cc1 | 99 | 110 | 76 | .
COC(=O)c1c(NC(=O)C2COc3ccccc3O2)sc2c1CCCC2 (stereo not given) | 107 | . | . | 22
CCN(CC)c1ccc(C2C(C(N)=O)=C(C)Nc3ncnn32)cc1 (stereo not given) | 100 | 90 | 87 | .
Cc1ccc2nc(NCc3ccc(F)cc3)c3nnnn3c2c1 | 100 | . | . | -2
Cc1ccc(N2C(=O)c3ccccc3C2(O)Cc2ccccc2)cc1 (stereo not given) | 102 | 108 | 100 | -2
CC1CCC(=O)C(C2(O)C(=O)Nc3ccccc32)C1 (stereo not given) | 102 | 81 | 86 | -25
COC(=O)c1sc(NC(=O)CSc2cc(C)nc(C)n2)nc1C | 100 | . | . | -12
CC1(C)N=C(c2ccc(Cl)cc2)C(=S)N1 | 103 | 87 | 81 | -37
CCOC(=O)N1CCC(NCc2ccco2)CC1 | 107 | 115 | 88 | -5
CCOC(=O)N1CCN(C(=O)C(C)Oc2ccc(C(C)(C)C)cc2)CC1 (stereo not given) | 101 | 94 | 97 | -10
CC1Oc2ccc(N)cc2N(C)C1=O (stereo not given) | 104 | 93 | 80 | -8
CCOc1ccc(Br)cc1S(=O)(=O)Nc1ncn[nH]1 | 101 | 90 | 89 | .
COc1ccc(NC(=O)c2ccc(-n3nc(OCc4ccc(Cl)cc4)ccc3=O)cc2)cc1 | 107 | . | . | -46
O=C(NCc1ccc(F)cc1)c1ccc(-n2c(=O)c(=O)n(Cc3ccccc3)c3cccnc32)cc1 | 100 | . | . | -23
Cc1ccc(C)c(NC(=O)C(NCC(C)(C)N2CCOCC2)c2ccccc2)c1 (stereo not given) | . | 106 | 93 | -39
O=C(NC1C2CC3CC(C2)CC1C3)c1ccc(Br)o1 (stereo not given) | . | 56 | 53 | 3
CSc1ccccc1-n1nnnc1SCc1ccccc1 | 104 | 103 | 96 | -6
CCOCC(=O)Nc1ccc(OCC)cc1 | 104 | 115 | 99 | -16
NC(N)=Nc1nc2ccccc2[nH]1 | . | 116 | 85 | -1
O=C1Nc2ccccc2C1(O)C(F)(F)F (stereo not given) | 104 | 87 | 85 | -33
CCCN(Cc1cccs1)C(=O)Nc1ccccc1C | 102 | 100 | 91 | 4
CCCn1cnc2nc(CSc3ccccc3NC(=O)C(C)C)cc(=O)n21 | 104 | . | . | 7
CCOc1ccc(OCCn2ccnc2)cc1 | 100 | 74 | 97 | -13
CCOc1ccc(-c2n[nH]c(=S)n2C2C=CCCC2)cc1 (stereo not given) | 103 | 99 | 78 | .
Cc1cc(=O)[nH]c(N/N=C/C(C)c2ccccc2)n1 (stereo not given) | 98 | 94 | 86 | -9
Cc1nc2ccccc2n(Cc2ccc(C(=O)NCc3cccc(Cl)c3)cc2)c1=O | 105 | . | . | -26
NC1c2ccccc2CCC1Cc1ccco1 (stereo not given) | 106 | 80 | 88 | -7
COc1ccc(CNC(=O)C2CCN(C(=O)c3cnn(-c4ccccc4)c3-n3cccc3)CC2)cc1 | 100 | 100 | 85 | -3
Cc1c(S(=O)(=O)N2CCOCC2)cc(C(=O)N2CCCC2)n1C | 103 | . | . | -40

New compounds follow
mol | GIV-Gai inh | Sa growth inh | Sa growth inh second temp | HCMV NEC inh
COc1ccc(C(=O)N2c3nc(-c4ccco4)nn3C3(CCCCC3)[C@@H]3CCCC[C@@H]32)cc1OC | 100 | 105 | 89 | 5
CCOc1ccc2nc(N3CCN(C(=O)c4ccco4)CC3)sc2c1 | 100 | 112 | 84 | .
COc1ccc(CCNC(=O)c2nc(Cn3cnc4ccccc4c3=O)no2)cc1OC | 98 | . | . | -13
O=C1NN=C(c2cc3ccccc3oc2=O)CC(c2ccco2)N1 (stereo not given) | . | 85 | 69 | -23
Cc1cc2c(NC(=O)CSCC(=O)O)cccc2nn1 | 99 | 102 | 85 | -31
CCC(C)(Nc1n[nH]c(=O)[nH]c1=O)C(=O)O (stereo not given) | . | 100 | 90 | 1
CC(C)c1ccccc1-n1cc[nH]c1=S | . | 88 | 94 | 5
O=S(=O)(Cc1ccccc1)n1cc(Cl)cn1 | 105 | 107 | 103 | 3
COc1ccccc1/C=C/C(=O)N1CCCC(c2ccccc2)C1 (stereo not given) | 100 | 74 | 53 | .
Cc1onc(-c2c(Cl)cccc2Cl)c1NC(=O)N/N=C/c1ccccn1 | 104 | 103 | 91 | -50
O=c1oc2ccccc2cc1-c1nnc(-c2ccncc2)o1 | 105 | 99 | 91 | -119
CCCC(=O)Nc1c2c(nc3ccccc13)N(c1ccccc1)CC2 | 103 | 75 | 93 | -15
O=C(NCc1ccccn1)c1ccccc1C(=O)c1cc(C(F)(F)F)cc(C(F)(F)F)c1 | 103 | 93 | 95 | -11
O=C(CCCc1c[nH]c2ccccc12)N1CCN(c2ccc(F)cc2)CC1 | 101 | 113 | 109 | 13
CCNC(=O)Oc1ccccc1 | 103 | 100 | 93 | -12
CCC(=O)N1CCc2cc(CNS(=O)(=O)c3c(C)cc(C)cc3C)ccc21 | 103 | 88 | 83 | .
O=c1[nH]cnc2c(-c3cccc(Cl)c3)csc12 | 97 | . | . | 6
CCOC(=O)/C(C#N)=C/N1CCCc2ccccc21 | 100 | 111 | 88 | -9
CNc1nc(NC(C)C)c2cnn(C)c2n1 | 101 | . | . | -10
CC(C)(C)c1ccc(C(=O)NC(Cc2c[nH]c3ccccc23)C(=O)OCC(=O)c2ccc(Cl)cc2)cc1 (stereo not given) | 106 | 113 | 92 | .
Cc1ccccc1OCC(=O)NC(C)c1ccccc1 (stereo not given) | 94 | 105 | 86 | -8
CCOc1nc(-c2ccc(Cl)cc2)nc2ccccc12 | 99 | 85 | 82 | .
O=C(CCCc1ccccc1)N1N=C(c2ccccc2)CC1(O)C(F)(F)F (stereo not given) | 99 | . | . | -19
CCOc1ccc(CNC(=O)CCC(=O)N2CCOc3ccccc32)cc1 | 101 | 77 | 79 | -27
COc1ccc(C2CC(=O)Oc3ccc(C(C)(C)C)cc32)cc1 (stereo not given) | . | 89 | 86 | -4
CCOC(=O)N1CCC(NC(=O)Cn2nc(Cc3cccnc3)c3ccccc3c2=O)CC1 | 102 | 89 | 100 | .
CC1=C(OC(=O)c2cccs2)C(=O)CC1 | 100 | 92 | 98 | 5
O=C(c1ccc2c(c1)OCO2)N1CCC(CN2C(=O)c3cccc4cccc(c34)C2=O)CC1 | 101 | . | . | -71
CC(Sc1nnc(CC(=O)Nc2ccccc2)n1C)C(=O)Nc1nccs1 (stereo not given) | 100 | 96 | 89 | -16
Cc1cc(C)cc(NC(=O)CSc2nccn2C2CCCC2)c1 | 108 | 134 | 91 | .
O=S1(=O)N=C(Oc2ccccc2)c2ccccc21 | . | 88 | 99 | 9
Cc1cccc(NS(=O)(=O)c2cn(C)c(C)n2)c1 | 103 | . | . | -9
CCS(=O)(=O)N1CCN=C1SCc1ccccc1 | 98 | 99 | 95 | -7
COc1ccc(/C(C)=N/NC(=O)CC2(C)OCCO2)c(OC)c1 | 105 | 107 | 105 | -4
CC(C)Cn1c(=O)c2ccccc2n2c(=O)n(CC(=O)Nc3ccccc3F)nc12 | 99 | . | . | 3
C/C(=N\N)c1ccc(OC(C)C)c(CN2CCOCC2)c1 | 95 | 103 | 117 | -6
Cc1onc(-c2ccccc2Cl)c1C(=O)NC(=S)NC1CCS(=O)(=O)C1 (stereo not given) | . | 81 | 90 | -2
O=C(CSc1nc2ccccc2s1)N=Nc1c(O)n(CN2CCCC2)c2ccccc12 | 102 | 73 | 50 | -45
CCc1cccc(C)c1NC(=O)CSc1nc(C)cc(C)c1C(=O)Nc1ccccc1 | 100 | 112 | 91 | -12
Cn1cc(C(=O)Nc2ccc(F)cc2F)c2[nH]c(=O)n(-c3ccccc3)c(=O)c21 | 101 | . | . | -6
CC1CCN(C(=O)CSc2nc(-c3ccc(F)cc3)cc(C(F)(F)F)n2)CC1 | 108&103 | 87 | 81 | -5&-19
COc1ccc(Cl)cc1NC(=O)Cn1c(=O)n(CCCCC(=O)NC(C)C)c(=O)c2ccccc21 | 105 | . | . | -18
O=C(CSc1ccnc(=O)[nH]1)N1CCCCC1 | 111 | 96 | 99 | -9
O=C(Nn1c(Cc2ccccc2)nc2ccccc2c1=O)c1ccco1 | 104 | 103 | 100 | 0
O=C(CSc1nc2nc[nH]c2c(=O)[nH]1)NC1CCCC1 | 99 | . | . | -8
COC(=O)c1ccc(C[N+]2(C)CCCCC2)cc1 | 100 | 98 | 111 | .

3 compounds from above, showing only Sa growth inh, Sa growth inh second temp and GIV-Gai inh.
molecule | Sa growth inh | Sa growth inh second temp | GIV-Gai inh
O=C(CSc1ccnc(=O)[nH]1)N1CCCCC1 | 96 | 99 | 111
O=C(Nn1c(Cc2ccccc2)nc2ccccc2c1=O)c1ccco1 | 103 | 100 | 104
O=C(CSc1nc2nc[nH]c2c(=O)[nH]1)NC1CCCC1 | . | . | 99

Full records from above. Values in the order: GIV-Gai inh | Sa growth inh | Sa growth inh second temp | HCMV NEC inh
Entry for CC1=C(C(=O)Nc2ccc(C)cc2)C(c2ccc(Cl)cc2)n2nnnc2N1 (stereo not given) : 108 | 143 | 98 | .
Entry for CCCC(=O)Nc1c2c(nc3ccccc13)N(c1ccccc1)CC2 : 103 | 75 | 93 | -15
Entry for Cn1c(C(=O)NCC2CCCO2)cc2c(=O)n(C)c3ccccc3c21 (stereo not given) : 103 | 108 | 93 | .
Entry for CC(C)(C)C(=O)Nc1cccc(N2CCn3c(nc4cc(Cl)ccc43)C2)c1 : 103 | . | . | 9
Entry for Cc1onc(-c2c(Cl)cccc2Cl)c1NC(=O)N/N=C/c1ccccn1 : 104 | 103 | 91 | -50
